Mtb H37Rv = M. tuberculosis H37Rv growth inhibitors, H37Rv strain (AID 1626). M. tuberculosis H37Rv growth inhibition; higher % means a stronger effect. one-dose inhibition, % at 10 µM; IC50 in µM for titrated hits. actives 0.95% (n = 220,000);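 active means confirmed in a dose series; inconclusive means inhibition above 80% but not taken into the dose series; inactive means below 80% or under 30% at every dose of the series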;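 further: bacteria incubated seven days before Alamar blue readout; 0% = bacteria only wells and 100% = bacteria with antibiotic wells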
Arbovirus inh = antivirals against arbovirus infection | AID 1251 | inhibition, % at 10 µM | arbovirus infection cell-based antiviral screen | actives 0.37% (n = 200,000);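 active means inhibition from about 30%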;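 further: bluetongue infection of BSR cells; cell survival read as ATP light after 72 h; 0% = infected wells without compound and 100% = uninfected wells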
RecA intein inh = Mtb RecA intein splicing inhibition. P9WHJ3. cell-free RecA intein splicing, fluorescence. inhibition, %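 (about 9 µM by stock and volumes)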. actives 0.75% (n = 290,000). AID 2221; in the data active means inhibition above about 30%; inconclusive means no clear call, values can overlap the other calls;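 further: 0% = vehicle wells and 100% = reference inhibitor control wells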
Target sequence (P9WHJ3 whole entry, looked up): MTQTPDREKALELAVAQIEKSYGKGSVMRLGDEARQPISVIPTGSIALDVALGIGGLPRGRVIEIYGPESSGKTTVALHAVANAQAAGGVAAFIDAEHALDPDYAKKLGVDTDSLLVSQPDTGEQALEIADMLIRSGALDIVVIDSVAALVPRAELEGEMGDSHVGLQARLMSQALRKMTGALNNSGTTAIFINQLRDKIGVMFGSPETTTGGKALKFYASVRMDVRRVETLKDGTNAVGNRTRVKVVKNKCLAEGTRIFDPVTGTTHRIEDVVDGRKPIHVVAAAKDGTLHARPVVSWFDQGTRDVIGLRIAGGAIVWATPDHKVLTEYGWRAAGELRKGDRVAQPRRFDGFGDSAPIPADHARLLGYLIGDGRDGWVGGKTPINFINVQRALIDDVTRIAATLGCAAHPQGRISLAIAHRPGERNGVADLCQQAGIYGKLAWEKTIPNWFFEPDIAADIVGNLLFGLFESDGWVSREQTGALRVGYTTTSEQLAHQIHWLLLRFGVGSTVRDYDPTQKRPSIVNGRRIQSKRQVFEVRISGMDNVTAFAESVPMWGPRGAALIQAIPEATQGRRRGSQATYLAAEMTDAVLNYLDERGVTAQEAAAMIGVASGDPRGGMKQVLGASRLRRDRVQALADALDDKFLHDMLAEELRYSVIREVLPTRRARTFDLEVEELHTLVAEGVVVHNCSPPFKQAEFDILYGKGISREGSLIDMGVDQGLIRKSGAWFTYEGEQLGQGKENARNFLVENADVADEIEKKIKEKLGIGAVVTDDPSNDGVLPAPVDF
YopH PTP inh = YopH (Yersinia) phosphatase inhibition; fluorescence Ex485/Em525; inhibition, %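 (about 10 µM by stock and volumes)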; actives 0.16% (n = 140,000); AID 898;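 active means inhibition of 50% or more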;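 further: controls were vehicle for no effect and minimum signal wells for full effect; inactives centre near -20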
Mtb betalactam = beta-lactam sensitization of Mtb H37Rv; M. tuberculosis H37Rv growth with meropenem, percent inhibition; hits of this screen are not shown here; inhibition, % at 25 µM; actives 0.27% (n = 330,000); AID 434955;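 active means about 74% or more and at least 40 points above the plate without the antibiotic, then above 30% in a dose series; inconclusive means first-round hits that could not be retested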;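 further: growth measured after seven days incubation then overnight dye step; 0% = bacteria only wells and 100% = bacteria with antibiotic; twin plates without the antibiotic show which effects depend on it; some results filed as inactive read as strong as hits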
Arbovirus inh repeat = further read-out of Arbovirus inh, marked with its call; inhibition, %; measured here: 10K subset replicate screen; many hits read low in the repeat;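 first of two repeat runs on a subset; 0% = infected and 100% = uninfected wells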
* hit, by the source's call; ? = inconclusive; . = no result given. An excerpt; count on the stated rates, not on these rows.

SMILES	Mtb H37Rv	Arbovirus inh	RecA intein inh	YopH PTP inh	Mtb betalactam	others
Cc1ccc(-c2cc(C(=O)N3CCOCC3)c3ccccc3n2)cc1	10%	7	-1.5	-22	20
Cc1c(/N=C/c2ccco2)n(Cc2ccccc2)c2ccccc12	-8%	-14	1.1	-31	0
CC/C(=N\NC(=O)C(N)=O)c1ccccc1O	0%	-24	-3.0	-45	1
COc1ccc(N(CC(=O)Nc2ccc(Cl)cc2)S(=O)(=O)c2c(C)n[nH]c2C)cc1	.	.	1.2	.	1
COC(=O)[C@@]12CCCCN1[C@H](c1ccc(-c3ccc(OC)cc3)cc1)[C@H]1C(=O)N(C)C(=O)[C@H]12	.	.	-3.5	.	2
Cc1c2cnn(CC(=O)O)c(=O)c2c(C)n1Cc1ccccc1	-4%	1	-1.1	-63	9
COc1cccc(-c2csc(N3CCN(C(=S)Nc4ccccc4)CC3)n2)c1	11%	6	-0.8	-30	0
C=C(C)CC(NCCc1ccccc1)c1ccco1 (centres undefined)	2%	1	-1.8	.	.
O=P(c1ccccc1)(c1ccccc1)C1CCCO1 (centres undefined)	0%	-4	-1.8	-44	11	Arbovirus inh repeat=2
Cc1[nH]c(=O)[nH]c(=O)c1S(=O)(=O)N1CCCC(C(=O)NCCC2=CCCCC2)C1 (centres undefined)	-8%	0	3.4	.	-2
O=C(N=C1SC2CS(=O)(=O)CC2N1c1ccc(F)c(Cl)c1)C1CCCO1 (centres undefined)	.	.	1.7	.	2
CCOC(=O)c1c(NC(=O)CSc2ncnc3ccccc23)sc(C(C)=O)c1C	3%	3	0.2	-22	14
Cc1ccc(N2C(=O)N(c3ccc(C)cc3)C3CS(=O)(=O)CC32)cc1 (centres undefined)	20%	5	-1.1	.	8
COc1ccc(C(CC(=O)N2CCOCC2)c2c(OC)cc(OC)c3c(-c4ccccc4)cc(=O)oc23)cc1 (centres undefined)	-12%	.	6.8	.	-13
CCOC(=O)N1CCN(C(=O)CSc2nnc(COc3ccccc3)o2)CC1	25µM*	-2	-0.4	-19	.	Arbovirus inh repeat=4
C[C@H](NC(=O)Nc1cccc(C(F)(F)F)c1)C(=O)O	-6%	3	-2.4	15	-6
O=C(NCc1ccccc1)C(c1ccccc1)N(Cc1ccc2c(c1)OCO2)C(=O)Cc1cccs1 (centres undefined)	-7%	5	-1.8	10	-14
Cc1ccc(S(=O)(=O)N(C)C)cc1NC(=S)NC12CC3CC(CC(C3)C1)C2	6%	9	7.4	-8	.
Cc1ccc(C(C)NC(=S)NC2CCCCC2)c(C)c1 (centres undefined)	.	.	0.4	.	-2
Cc1ccccc1OC(=O)CCC(=O)OCCCC(F)(F)C(F)(F)F	-4%	-8	-0.3	-9	3

Overlap with the part before: 2 compounds, followed by the next part.
SMILES	Mtb H37Rv	Arbovirus inh	RecA intein inh	YopH PTP inh	Mtb betalactam	others
Cc1ccc(C(C)NC(=S)NC2CCCCC2)c(C)c1 (centres undefined)	.	.	0.4	.	-2
Cc1ccccc1OC(=O)CCC(=O)OCCCC(F)(F)C(F)(F)F	-4%	-8	-0.3	-9	3
O=C1NC(c2ccccc2O)Nc2ccccc21 (centres undefined)	.	.	-9.6	.	-6
C/C(=N\NC(=O)c1ccc2c(c1)OCCO2)c1ccccc1	-4%	.	-1.5	.	1
Cc1ccc2c(Cl)c(C)c(N3CCCCC3)nc2n1	10%	-7	0.7	-3	10
CC(=O)N(C)c1ccc(N=NC2C(=O)N(C(N)=S)N=C2C)cc1 (centres undefined)	.	.	5.2	.	9
O=C(CCNC(=O)OCc1ccccc1)NC1CCCCC1	12%	7	2.1	-13	1
Cc1ccc(C)c(Cc2c(C)nc3c(C(=O)NCc4ccc5c(c4)OCO5)cnn3c2C)c1	.	-21	14	-18	96
Cn1ccc(/C=N/N=C2/NC(=O)CS2)n1	-16%	.	-0.4	.	31
Cc1cc(/C=C2/NC(=O)NC2=O)c(C)n1C	-2%	0	-1.8	.	6
CCCC(C)C(=O)Nc1cc([N+](=O)[O-])ccc1F (centres undefined)	8%	-5	-0.2	-5	3
COc1ccc(Cl)cc1NC(=O)CN1C(=O)CSC1=O	18%	10	1.5	-11	-6
C=CCNC(=O)/C(C#N)=C\c1cc(Cl)c(O)c(OCC)c1	6%	-20	-2.5	-15	1
O=C(c1ccco1)N1CCN(C(=O)c2ccccc2[N+](=O)[O-])CC1	2%	2	-1.4	.	-4
CCN(c1ccccc1)S(=O)(=O)c1cc(C(=O)Nc2ccc(Br)cc2)ccc1F	6%	0	2.0	-21	1
CC1CN=C(N(C(=O)Nc2ccccc2)c2ccc(F)cc2)S1 (centres undefined)	-5%	-4	.	-51	23
Cc1ccc(C)c(NC(=S)Nc2cccc3cnccc23)c1	5%	1	2.3	.	6
CCCCP(=O)(CCCC)Cc1ccccc1O	-2%	2	-4.1	-9	-4
Cc1sc2ncnc(SCc3ccc(C(=O)O)cc3)c2c1C	-10%	7	1.2	.	-10
Cc1ccc(NC(=O)c2cc([N+](=O)[O-])ccc2Cl)c(O)c1	8%	13	14	.	2
OCCN(Cc1ccccc1)Cc1cccc(C(F)(F)F)c1	2%	6	.	15	?
COc1ccccc1N1CCN(C(=O)CSc2nc(C)c(C)c(=O)[nH]2)CC1	4%	2	-6.7	.	13

In the list so far, eight have four or more nitrogen atoms.
SMILES	Mtb H37Rv	Arbovirus inh	RecA intein inh	YopH PTP inh	Mtb betalactam	others
COc1ccc(N(CC(=O)Nc2ccc(Cl)cc2)S(=O)(=O)c2c(C)n[nH]c2C)cc1	.	.	1.2	.	1
COc1cccc(-c2csc(N3CCN(C(=S)Nc4ccccc4)CC3)n2)c1	11%	6	-0.8	-30	0
Cc1[nH]c(=O)[nH]c(=O)c1S(=O)(=O)N1CCCC(C(=O)NCCC2=CCCCC2)C1 (centres undefined)	-8%	0	3.4	.	-2
CCOC(=O)N1CCN(C(=O)CSc2nnc(COc3ccccc3)o2)CC1	25µM*	-2	-0.4	-19	.	Arbovirus inh repeat=4
CC(=O)N(C)c1ccc(N=NC2C(=O)N(C(N)=S)N=C2C)cc1 (centres undefined)	.	.	5.2	.	9
Cc1ccc(C)c(Cc2c(C)nc3c(C(=O)NCc4ccc5c(c4)OCO5)cnn3c2C)c1	.	-21	14	-18	96
Cn1ccc(/C=N/N=C2/NC(=O)CS2)n1	-16%	.	-0.4	.	31
COc1ccccc1N1CCN(C(=O)CSc2nc(C)c(C)c(=O)[nH]2)CC1	4%	2	-6.7	.	13

Following part
SMILES	Mtb H37Rv	Arbovirus inh	RecA intein inh	YopH PTP inh	Mtb betalactam	others
O=C(O)c1cccc(S(=O)(=O)N(Cc2ccccc2)c2ccccc2Cl)c1	.	.	3.1	.	8
Cc1ccc(C(=O)C2CCN(CC(=O)NC3CCCCC3)CC2)cc1	6%	0	0.3	0	-17
O=C(c1cccc(S(=O)(=O)N2CCN(c3ccccc3)CC2)c1)N1CCN(c2ccccc2O)CC1	.	.	1.9	.	-9
COCC(=O)OC/C(O)=C(\C#N)c1nc2ccccc2[nH]1	43%	.	0.7	.	89
Cc1cc(OCC(=O)Nc2ccc(Br)cc2)cc2c1C(=O)CC(C)(C)O2	-1%	.	0.8	.	33
Cc1cccc(NC(=O)NC2CCCc3ccccc32)c1 (centres undefined)	.	.	-0.6	.	-2
O=C(Nc1ccc(F)cc1)Nc1cccnc1Cl	.	.	-5.0	.	-10
CCC(Sc1ccc2nnc(-c3ccc(F)cc3)n2n1)C(=O)OC (centres undefined)	-5%	6	0.9	-21	-4
Cc1[nH]n(-c2ccccc2)c(=O)c1C(C[N+](=O)[O-])c1ccc(Br)cc1 (centres undefined)	?	-16	77*	3	100
C(=N\n1cnnc1)/c1cn(-c2cccs2)nc1-c1ccccc1	-1%	-16	0.9	-23	61
Cn1cc(-c2ccno2)c(C(=O)O)n1	5%	4	2.5	.	4
Cn1cc(Cl)c(C(=O)NNC(=S)NCc2ccco2)n1	2%	0	-1.1	.	-3
CCOC(=O)C1CCCN(CC(O)COc2ccccc2C(C)=O)C1 (centres undefined)	-12%	1	3.4	-3	3
CN(CC(=O)N1CCCCC1)S(=O)(=O)c1ccc(Cl)cc1	-2%	2	-1.4	.	-2
COc1ccc(Cl)cc1NC(=O)c1oc(C)nc1C	4%	8	3.0	-21	8
CCOC(=O)c1c(C)nc2sc3c(=O)n(-c4ccc(C)cc4)cnc3c2c1-c1ccc(OC)cc1	-10%	-7	-3.2	-39	-3
COc1ccc(-c2nc(CS(=O)(=O)CC(=O)NCc3cccc(Br)c3)c(C)o2)cc1	.	.	4.4	.	6
CCCCSc1nc(C)[nH]c1[N+](=O)[O-]	0%	19	0.8	-4	10
O=C(NC1CCCCC1)/C(=N\O)c1ccccn1	-10%	-4	-2.5	-45	0
Cc1ccc(C(=O)NCCCNC(=O)c2ccccc2C)cn1	.	.	2.0	.	1
Cc1cc2nc3n(c2cc1C)CCCN3	.	.	0.4	.	-1
C#CC[N+]1(CC#Cc2ccccc2)CCOCC1	3%	-3	1.8	6	-6
O=C(Nc1cnccn1)c1ccc(F)cc1Cl	.	.	0.3	.	-3
CCN(C(=O)CSc1nc2cc(S(=O)(=O)N(CC)CC)ccc2o1)C1CCS(=O)(=O)C1 (centres undefined)	.	.	-4.3	.	-10
CC1CCCCN1CCNS(=O)(=O)c1ccc2c(c1)oc(=O)n2C (centres undefined)	-6%	12	.	-21	-14
CC(C)CCNC(=S)Nc1ccc([N+](=O)[O-])cc1	17%	-21	5.4	1	7
Cc1nnsc1C(=O)NNc1ccc(C(C)C)cc1	-9%	.	0.3	.	-4
N/C(=N\OS(=O)(=O)c1ccc(Cl)cc1)c1ccccn1	2%	4	.	.	.
Cc1cccc(Cc2cnc(NC(=O)CN3C(=O)/C(=C/c4ccccc4)SC3=S)s2)c1	.	-3	3.0	-14	1
CCC(C)C(NC(=O)C1CCC(C)CC1)C(=O)NC(CCSC)C(=O)OC (centres undefined)	1%	6	-3.7	-9	6
FC(F)(F)c1cccc(Cn2c3[n+](c4ccc(C(F)(F)F)cc42)CCCCC3)c1	0%	25	0.8	.	1
O=C(C1CCN(S(=O)(=O)c2ccc(F)cc2)CC1)N1CCCC(C(F)(F)F)C1 (centres undefined)	.	.	8.1	.	-6
CCOc1ccc(S(=O)(=O)N2CCOCC2)cc1NC(=O)c1ccc(N2CCCC2=O)cc1	.	.	-4.7	.	-7
Cc1[nH]c2ccccc2c1CCN(Cc1cccs1)C(=S)Nc1ccccc1	8%	9	13	.	0
C=CC[n+]1c(C)csc1Nc1ccc(C)cc1	11%	4	.	.	27
CCNC(=S)N/N=C/c1cccc(OCc2c(F)cccc2Cl)c1	19%	3	25	-17	-1
Cc1ccc(C)c(S(=O)(=O)N2CCC(c3nc4c(nnn4Cc4ccc5c(c4)OCCO5)c(=O)[nH]3)CC2)c1	.	.	6.8	.	96
Cc1cc(C)nc(SCCn2c(N3CC(C)OC(C)C3)nc3c2c(=O)n(C)c(=O)n3C)n1 (centres undefined)	-3%	6	3.0	.	-13
O=C(N/N=C/c1ccccc1Cl)c1ccc(F)cc1	1%	-4	-0.6	-37	46
CC(=O)c1ccc(OCCCC(=O)OCc2nnc(-c3ccc(Cl)cc3)o2)cc1	3%	2	.	-42	12
Cc1sc2c(c1C)CN(C1CC(C)(C)NC(C)(C)C1)CN2C(=O)c1ccco1	.	4	.	14	5
COc1cc(C(=S)NC2CCCCC2)ccc1O	-1%	0	0.0	-30	-8
Cc1onc(-c2c(Cl)cccc2Cl)c1C(=O)NCCN1CCOCC1	6%	0	6.9	-10	-16
CC(=O)c1cc2c(cc1NC(=O)CCC1CCCC1)OCO2	8%	5	6.3	-6	3
Cc1nc2sc(C)c(C)c2c(=O)o1	3%	-2	0.6	-23	-8
O=C1c2[nH]nc(-c3ccccc3O)c2C(c2cccc(O)c2)N1Cc1ccco1 (centres undefined)	0%	28	12	-61	-19
CC(C)c1ccc(Nc2nc(Cl)nc(NCCO)n2)cc1	.	.	1.1	.	11
COc1cccc2cc(-c3nnc(SCC(=O)NCc4ccccc4)n3C)oc12	-2%	1	0.4	3	4
Cc1nn(-c2cccc(C(F)(F)F)c2)c(=O)c2noc(C)c12	-4%	.	0.0	.	10
O=C(Cn1cnc2cc([N+](=O)[O-])ccc2c1=O)N(Cc1ccccc1)C1CCS(=O)(=O)C1 (centres undefined)	5%	7	1.9	.	-1
Further entries:
SMILES	Mtb H37Rv	Arbovirus inh	RecA intein inh	YopH PTP inh	Mtb betalactam	others
CC1(C)Cc2c(C#N)c(N3CCOCC3)nc(Cc3ccccc3)c2CO1	5%	-10	.	-31	55
Cc1noc(/C=C/N(C)C)c1S(=O)(=O)N1CCCC(C(=O)NCc2ccc(F)cc2)C1 (centres undefined)	.	-8	2.5	-55	-6	Arbovirus inh repeat=-23
O=C(NNS(=O)(=O)c1ccc(F)cc1)C1CC(c2cccnc2)=NO1 (centres undefined)	-3%	1	-3.5	.	2
COc1ccc(CCN(C)CCC(=O)Nc2ccc(C)cc2)cc1OC	1%	-4	-1.0	-7	2

Screens as filed in PubChem BioAssay.
